Sa growth inh – S. aureus growth inhibition at 42 and 30 °C, primary screen, LtaS inhibitor project, RN4220, two temperatures. OD600, 20 h, 42 °C; active compounds read low. relative growth, % (no concentration beside the values). hit rate 0.53% among 170,000. AID 720641, 2013;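 active = growth at 42 °C up to 50% and 20 or more points under that at 30 °C, or under 10% at both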;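 note: 300 nL library stock went into each well; scaled to the means of positive and negative controls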
HCMV NEC inh – inhibitors of HCMV UL50-UL53 interaction, biochemical, HTRF. HCMV UL50-UL53 nuclear egress complex (human cytomegalovirus). normalized percent inhibition. inhibition, % (no concentration beside the values). hit rate 0.15% among 190,000;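 active = both replicates at 50% or more, plus weaker picks with an unusually low signal ratio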;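 note: stock transfer was 100 nL into about 20 µL; 0% = negative control wells and 100% = wells with untagged competitor protein; inactives centre near -12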
GIV-Gai inh – inhibitors of GIV peptide binding to Galpha-i3, primary screen, biochemical, fluorescence polarization, FITC-GIV GBA peptide, rat Galphai3 | 90 min; active compounds read low; scaled: aluminum fluoride 0%, vehicle 100% | hit rate 0.42% among 210,000 | AID 1224905, 2016 | percent of control (FP), % (no concentration beside the values) | Guanine nucleotide-binding protein G(i) subunit alpha-3 (Rattus norvegicus), P08753;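 active = replicate mean at 85% of control or lower, very high polarization wells dropped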;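 note: wells of about 15 µL received 100 nL stock; the first replicate is given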
Target sequence (P08753 whole entry, looked up): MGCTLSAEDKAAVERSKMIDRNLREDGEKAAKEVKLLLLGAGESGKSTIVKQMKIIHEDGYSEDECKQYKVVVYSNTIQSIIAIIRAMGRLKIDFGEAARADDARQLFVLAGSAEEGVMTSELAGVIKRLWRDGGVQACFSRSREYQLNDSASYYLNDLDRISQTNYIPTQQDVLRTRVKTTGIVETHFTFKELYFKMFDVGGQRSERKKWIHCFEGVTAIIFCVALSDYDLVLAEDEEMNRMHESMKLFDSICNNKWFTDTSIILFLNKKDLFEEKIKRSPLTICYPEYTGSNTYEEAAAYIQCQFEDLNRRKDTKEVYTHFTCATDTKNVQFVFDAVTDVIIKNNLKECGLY
Sa growth inh second temp – recorded beside Sa growth inh, whose call it bears; relative growth, %; measured here: growth at 30 °C;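 optical density after 20 h as mean of two plates; 100% = untreated growth and lower means inhibition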
The depositor's hits bear a star; · = no result given.

Each structure is followed by: Sa growth inh second temp | GIV-Gai inh | Sa growth inh | HCMV NEC inh
> Cn1c(SCC(=O)N2CCCc3ccccc32)nc2c(-c3ccccc3)csc2c1=O
  · | 105 | · | -2
> COC(=O)C(C)Oc1ccc2cc(-c3nc4ccccc4s3)c(=O)oc2c1 (stereo unspecified)
  85 | 120 | 84 | -8
> COc1ccc(Cn2c(CN)nc3cccnc32)cc1
  · | 101 | · | -36
> Cc1cc(Nc2ccc(O)cc2)c2cc(Cl)ccc2n1
  57 | 115 | 72 | -73
> CC1CCN(C(=O)c2cc(C3CC3)[nH]n2)CC1
  · | 107 | · | 0
> CCOC(=O)c1ccc2c(c1)N(Cc1ccccc1C)C(=O)c1ccccc1S2(=O)=O
  · | 99 | · | -11
> COc1ccc(CCN(C)Cn2ncn(C)c2=S)cc1OC
  93 | · | 95 | -38
> Cc1nc(C)c(C(=O)Nc2ccc(F)c(Cl)c2)s1
  · | 99 | · | -12
> CCOCCSc1nc2c(cnn2CCO)c(=O)[nH]1
  · | 104 | · | -23
> O=C1c2ccccc2C(=O)c2cc(S(=O)(=O)Nc3nc4ccccc4s3)ccc21
  · | 99 | · | -171
> Cc1nc(-c2ccc3c(c2)CCN3C(=O)Cc2ccccc2Br)no1
  · | 113 | · | -8
> c1cn(-c2ccc(N3CCCCC3)nn2)cn1
  84 | · | 94 | -46
> N=C1/C(=C2\Nc3ccccc3S2)CC(=O)N1CCc1ccccc1
  0.7* | · | 1.4* | -11
> CCCc1nnc(SCC(=O)Nc2ccccc2)o1
  90 | 95 | 80 | -2
> CC(C)(C)c1ccc(OCC(=O)Oc2cccc(-n3cnnn3)c2)cc1
  · | 103 | · | -25
> COCCCn1c(C)cc(C(=O)Cn2nc(C)c(C)c(C#N)c2=O)c1C
  94 | · | 97 | -109
> c1ccc(-c2csc(N3CCN(c4ncccn4)CC3)n2)cc1
  106 | 102 | 123 | -16
> COC(=O)C1=C(Nc2ccc3c(c2)OCCO3)CSC1
  80 | 97 | 111 | -4
> CCCCn1c(=O)[nH]c2c(c1=O)CCC2
  97 | 103 | 96 | -1
> CCOC(=O)c1ccc(Oc2cc(C)nc(SC)n2)cc1
  102 | 96 | 103 | ·
> O=C(Nc1ccc(Cn2nnc3ccccc32)cc1)c1cccs1
  92 | 95 | 84 | -10
> O=C1CN(NC(=O)NC2CCCCC2)C(=O)N1
  90 | · | 98 | -7
> C[N+]1(CC(O)C[N+]2(C)CCCCC2)CCCCC1
  92 | · | 68 | -5
> CCCN1C(=O)C(O)(CC(=O)c2ccc(OC)cc2OC)c2cc(Br)ccc21 (stereo unspecified)
  85 | 99 | 83 | ·
> CC(=O)c1ccc(NC(=O)CCc2nc(-c3ccc(C)cc3)no2)cc1
  93 | 106 | 103 | -11
> CCC(CC)NC1CCN(Cc2ccccc2)CC1
  117 | 103 | 108 | 18
> CCOc1ccc(NC(=O)Cn2cc(C(=O)OC)c(=O)c3ccc(C)nc32)cc1
  · | 108 | · | -22
> COC(=O)Cn1c(=O)c2c(nc3n2CCCN3c2ccc(Cl)cc2)n(C)c1=O
  · | 103 | · | -18
> CCc1cccc(C)c1NS(=O)(=O)c1c(C(=O)N2CCCC2)c(C)n(C)c1C
  · | 102 | · | -18
> CCOC(=O)c1c(C)[nH]c(CCC(=O)Nc2ccc(N(CC)CC)cc2C)c1C
  98 | 114 | 98 | ·
> N#CCC(=O)Nc1ccc(C(=O)OCC(=O)N(Cc2ccccc2)C2CCS(=O)(=O)C2)cc1 (stereo unspecified)
  92 | · | 100 | -42
> CC(C)NC(=O)C1=CC(c2ccco2)=NS(=O)(=O)N1C
  99 | 107 | 101 | ·
> CCCC(=O)Nc1ccc(-n2c(C)ccc2C)cc1
  79 | · | 66 | -42
> Cc1ccc2[nH]cc(CCNC(=O)c3cccc(NC(=O)c4nnc(C)s4)c3)c2c1
  · | 105 | · | -13
> CCOc1ccc(NC(=O)CCc2nc3cccnc3n2Cc2ccc(OC)cc2)cc1
  91 | 100 | 100 | 3
> Cc1nc2n(Cc3ccccc3)c3ccccc3n2c1C(=S)Nc1ccccc1
  90 | 104 | 95 | ·
> COc1ccc2[nH]c(=O)c(CN(CCO)S(=O)(=O)c3ccc(Cl)c(C(F)(F)F)c3)cc2c1
  70 | 105 | 61 | 3
> COc1ccc(NC(=O)COC(=O)C2CCN(C(=O)Nc3ccccc3)CC2)cc1Cl
  88 | · | 94 | -10
> COc1ccc(C2CC(=O)C3=C(C2)NC(=O)CC3c2ccccc2)cc1 (stereo unspecified)
  81 | 98 | 100 | ·
> CC1Cc2ccccc2N1S(=O)(=O)c1cccc(C(=O)NC2CC2)c1 (stereo unspecified)
  77 | · | 112 | -21
> CN(C)C(=O)c1cc(S(=O)(=O)N(C)C)c(Cl)cc1N1CCCC1
  96 | 96 | 94 | -9
> Cc1ccc(Cn2c(CN3CCC(C(=O)O)CC3)cc3ccccc32)cc1
  84 | 106 | 109 | -24
> CN1CCC(NC(=S)NCCc2ccccc2)CC1
  86 | · | 114 | -29
> CCOC(=O)Cn1c(=O)c(C2OCCO2)cc2c(C)ccc(C)c21
  96 | 102 | 112 | 2
> O=C(CSc1nnc2[nH]c(=O)cc(-c3ccccc3)n12)Nc1ccc(F)cc1F
  77 | 99 | 88 | ·
> C/C(=N\O)c1sc2scc(C)c2c1C
  77 | 102 | 93 | -13
> O=C(NC1CCCCC1)c1c[nH]c2ccc(S(=O)(=O)Nc3ccc4c(c3)OCCO4)cc2c1=O
  64 | 103 | 95 | -14
> c1ccc(NC(c2ccccc2)c2nnc(-c3ccccc3)o2)cc1 (stereo unspecified)
  92 | 98 | 90 | -31
> N#CC1=C(N)Oc2n[nH]c(-c3ccccc3)c2C1c1cccc(OC(=O)N2CCOCC2)c1 (stereo unspecified)
  · | 103 | · | -1
> CC1=C(C(=O)OCc2ccccc2)C(c2ccc(Br)s2)NC(=O)N1C (stereo unspecified)
  · | 105 | · | -23
> CC1(C)CC(NC(=O)NC23CC4CC(CC(C4)C2)C3)CC(C)(C)N1
  96 | 104 | 125 | -13
> Cc1[nH]c(=O)[nH]c1C
  93 | · | 108 | -11
> Cc1cc(-c2nnc3sc(COc4ccccc4Cl)nn23)n[nH]1
  · | 107 | · | -13
> COc1ccc(NC(=O)c2cc3c([nH]c2=O)CCCC3=O)cc1
  · | 125 | · | -25
> CCCCN(C)Cc1ccncc1
  58 | 103 | 112 | -19
> CC(C)c1ccc(C(=O)OCC(=O)N2CCCCC2)cc1
  81 | · | 107 | -40
> Cc1cc(OC(=O)/C=C/c2ccc(C)o2)n(Cc2c(Cl)cccc2Cl)n1
  85 | · | 99 | -16
> CCN(CC)S(=O)(=O)c1ccc(C(=O)Nc2c3c(nn2-c2ccccc2C)CSC3)cc1
  · | 102 | · | -20
> Cn1c(=O)n(C)c2cc(NC3=C(C(N)=O)S(=O)(=O)c4ccccc43)ccc21
  · | 105 | · | -12
> Cc1ccc(S(=O)(=O)Nc2ccc(-c3ccc(N4CCOCC4)nn3)cc2)c(C)c1
  · | 99 | · | -52

Quoted at random: 7 records from the list
Each structure is followed by: Sa growth inh second temp | GIV-Gai inh | Sa growth inh | HCMV NEC inh
> COC(=O)Cn1c(=O)c2c(nc3n2CCCN3c2ccc(Cl)cc2)n(C)c1=O
  · | 103 | · | -18
> CC1(C)CC(NC(=O)NC23CC4CC(CC(C4)C2)C3)CC(C)(C)N1
  96 | 104 | 125 | -13
> CC(C)c1ccc(C(=O)OCC(=O)N2CCCCC2)cc1
  81 | · | 107 | -40
> CC1Cc2ccccc2N1S(=O)(=O)c1cccc(C(=O)NC2CC2)c1 (stereo unspecified)
  77 | · | 112 | -21
> Cc1nc(-c2ccc3c(c2)CCN3C(=O)Cc2ccccc2Br)no1
  · | 113 | · | -8
> COCCCn1c(C)cc(C(=O)Cn2nc(C)c(C)c(C#N)c2=O)c1C
  94 | · | 97 | -109
> Cc1cc(-c2nnc3sc(COc4ccccc4Cl)nn23)n[nH]1
  · | 107 | · | -13

Remaining list, next part.
Each structure is followed by: Sa growth inh second temp | GIV-Gai inh | Sa growth inh | HCMV NEC inh
> COc1cc(OCc2ccccc2)ccc1CN1CCN(Cc2ccccc2)CC1
  88 | 104 | 105 | -21
> CC1CCN(C(=O)c2cc3n(n2)C(C(F)(F)F)CC(c2ccccc2)N3)C(C)C1 (stereo unspecified)
  92 | 103 | 92 | -42
> COc1ccccc1CNC(=O)COc1cc(C)nn1-c1ccc(Cl)cc1
  82 | · | 108 | -18
> COc1ccc2cc(C(=O)NCc3ccc4c(c3)CCN4C(=O)c3ccccc3)[nH]c2c1
  94 | 97 | 118 | ·
> CCS(=O)(=O)N1CCc2cc(C(=O)Nc3cc(Cl)ccc3C)ccc21
  90 | 102 | 113 | 0
> CC1CCCC(NC(=O)Nc2noc3c2COc2ccccc2-3)C1C (stereo unspecified)
  88 | 101 | 73 | -28
> CC(=O)NS(=O)(=O)c1ccc(N2C(=O)CC(Sc3nc4ccccc4s3)C2=O)cc1 (stereo unspecified)
  · | 110 | · | 6
> N#CC(c1ccc(Br)cc1)N1CCN(C(C#N)c2ccc(Br)cc2)CC1 (stereo unspecified)
  81 | · | 96 | -27
> O=C(O)CNC(=O)c1ccc2ccccc2c1
  91 | · | 96 | -7
> CCCNC(=O)c1cc(-c2ccccc2)on1
  88 | 100 | 106 | 6
> CCc1cccc(C)c1NS(=O)(=O)c1c(C)nc2sccn2c1=O
  66 | 103 | 102 | ·
> NNc1ccccc1C(F)(F)F
  79 | · | 122 | -14
> O=c1cc(CSc2nnc(-c3ccccc3)o2)c2ccccc2[nH]1
  96 | 99 | 118 | -1
> COc1ccc(-c2ccc(Nc3ccc(OC(F)(F)F)cc3)nn2)cc1
  93 | 103 | 115 | ·
> Nc1ccccc1SC(CC(=O)c1ccc(Br)cc1)c1ccccc1 (stereo unspecified)
  68 | 104 | 64 | -29
> Cc1ccc2nc(C3CCCN(C(=O)NCc4ccccc4)C3)[nH]c2c1 (stereo unspecified)
  75 | 102 | 102 | 5
> O=C(NCCc1nc2cccnc2n1-c1ccccc1)Nc1cccc(Br)c1
  · | 109 | · | -15
> Cc1nnc(NC(=O)Cn2cnc3oc(C)c(C)c3c2=O)s1
  · | 101 | · | -22
> CNC(=O)c1cc2c(n(-c3ccc(C)cc3)c1=O)CC(C)(C)CC2=O
  84 | 107 | 101 | -21
> CC(=O)Nc1cccc(C(=O)NCc2ccc3c(c2)CCN3C(=O)c2ccccc2)c1
  86 | 110 | 130 | ·
> O=C(O)CCn1nc(-c2ccc(F)cc2)cc(Cc2ccccc2)c1=O
  85 | 108 | 98 | -35
> CSC1=C(C#N)C(c2ccccc2Cl)C2=C(CCCC2=O)N1 (stereo unspecified)
  71 | · | 67 | -32
> COC(=O)C(CCSC)NC(=O)c1cc2c(n(-c3ccc(C)cc3)c1=O)CC(C)(C)CC2=O (stereo unspecified)
  91 | 100 | 111 | -12
> Cc1cccc(C)c1NC(=O)c1ccc2nnc(C)n2c1
  · | 102 | · | -28
> CC12CC3(C)CC(C)(C1)CC(C(=O)NC1=NCCS1)(C2)C3
  9 | 95 | 82 | ·
> C=C(C)c1cccc(C(C)(C)NC(=O)N2CCCC(C(N)=O)C2)c1 (stereo unspecified)
  94 | 97 | 83 | ·
> C=C(C)CNC(=S)N1CCNCC1
  78 | 100 | 111 | -7
> CCOC(=O)CC1=CC(=O)N(CC(=O)Nc2ccc3c(c2)OCO3)c2cc(C)c(C)cc2N1
  · | 112 | · | -40
> CCOc1ccc(-c2nnn(CC(=O)NC3CCCCC3)n2)cc1
  109 | 101 | 116 | 4
> CC(=O)Nc1sc2c(c1C(N)=O)CCCC2
  92 | 99 | 101 | -12

Whole records as entered above. Screens in order: Sa growth inh second temp, GIV-Gai inh, Sa growth inh, HCMV NEC inh
CCOc1ccc(-c2nnn(CC(=O)NC3CCCCC3)n2)cc1 is listed with 109, 101, 116, 4
N#CC(c1ccc(Br)cc1)N1CCN(C(C#N)c2ccc(Br)cc2)CC1 (stereo unspecified) is listed with 81, ·, 96, -27
CCCNC(=O)c1cc(-c2ccccc2)on1 is listed with 88, 100, 106, 6
NNc1ccccc1C(F)(F)F is listed with 79, ·, 122, -14

(listing goes on)
Each structure is followed by: Sa growth inh second temp | GIV-Gai inh | Sa growth inh | HCMV NEC inh
> CC(O)(CNCc1ccc(Cl)cc1)CSc1ccccc1Cl (stereo unspecified)
  55 | 102 | 99 | -19
> N#C/C(=C(/O)CCCN1C(=O)c2ccccc2C1=O)c1nc2ccccc2[nH]1
  92 | 102 | 86 | -31
> O=C(NCCCN1CCCC1=O)c1c(O)nc2ccccn2c1=O
  81 | 99 | 95 | -27
> COc1ccc(OC)c(C2CC(=O)c3c([nH]c(C(=O)OCc4ccc(C)cc4)c3C)C2)c1 (stereo unspecified)
  90 | 104 | 99 | -8
> COc1ccc(N=Cc2ccccc2N2CCN(C)CC2)cc1
  101 | 111 | 116 | 0
> O=C(OCc1c(Cl)cccc1Cl)c1ccc(Br)o1
  89 | · | 120 | -26
> Cc1cc(-c2ccccc2N)n[nH]1
  89 | 112 | 75 | 3
> CC1CCN(C(c2ccccc2)c2sc3nc(-c4ccco4)nn3c2O)CC1 (stereo unspecified)
  97 | 92 | 120 | ·
> NS(=O)(=O)c1cccc(C(=O)OCc2ccc(Cl)cc2)c1
  44 | · | 67 | -12
